Source: PubChem (Broad Institute)
Vaccinia stage: Vaccinia orthopox stage-specific inhibition; Vaccinia-infected cells, mCherry/Venus stage reporter fluorescence; hits give low values; some inactives read as strong as hits; activity change (mCherry), % (test concentration not listed); actives 0.01% (n = 89,000);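 active = mCherry past -33% and 40 or more points under the early reporter, replicates agreeing; inconclusive = past -33% without that gap or agreement; tested in A549 cells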;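 note: scaled between vehicle wells and reference inhibitor wells; 23 nL library stock went into each well; one replicate is shown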
Vaccinia stage Venus: recorded beside Vaccinia stage, whose call it bears; activity change (Venus), %; measured here: Venus reporter, other viral stage;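 negative = less Venus signal; first of two replicates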
* marks the source's active call; other numbers are inactive results; ? = inconclusive; . = no result given.

Structure	Vaccinia stage	Vaccinia stage Venus
CCCC#Cc1cnc2c(c1)C(=O)N([C@@H](C)CO)C[C@@H](C)[C@@H](CN(C)C(=O)Nc1cccc(F)c1)O2	?	.
COCC(=O)N1[C@H](CO)[C@@H]2c3ccccc3N(C(=O)c3ccccc3F)C[C@@H]21	0	-1
C[C@@H]1CN([C@H](C)CO)C(=O)c2cc(NC(=O)c3ccncc3)ccc2O[C@@H](C)CCCCO[C@@H]1CN(C)C(=O)Cc1ccccc1	26	11
O=C(c1ccncc1)N1CCCCN2[C@H](CO)[C@H](c3ccc(C#Cc4ccccn4)cc3)[C@@H]2C1	23	10
COc1ccc(CN2CC3(CCN(C(=O)C4CC4)CC3)c3c(n(C)c4cc(OC)ccc34)[C@H]2CO)cc1	-6	-6
CC=Cc1ccc2n(c1=O)C[C@@H]1[C@@H](CO)[C@H](C(=O)NCc3ccccc3)N(Cc3cncnc3)[C@H]21 (mixture of isomers)	19	19
C[C@H]1CN([C@@H](C)CO)C(=O)Cc2cc(NS(=O)(=O)c3ccc(F)cc3)ccc2O[C@H]1CN(C)C(=O)Nc1ccc(F)cc1	11	5
CO[C@H](CN(C)C(=O)c1cnccn1)[C@@H](C)CN([C@@H](C)CO)S(=O)(=O)c1ccc(Cl)cc1	9	13
O=C(NC1Cc2ccccc2C1)[C@H]1[C@H](CO)[C@H]2Cn3c(ccc(-c4ccccc4)c3=O)[C@@H]1N2	0	-3
O=C(C[C@H]1CC[C@H](NS(=O)(=O)c2ccccc2)[C@H](CO)O1)NCCN1CCCCC1	4	2
COc1ccc(S(=O)(=O)N2CCCCN3[C@H](CO)[C@H](c4ccc(-c5cccnc5)cc4)[C@@H]3C2)cc1	-9	-16
COCC(=O)N(C)C[C@H]1Oc2ncc(C#CC3(O)CCCC3)cc2C(=O)N([C@H](C)CO)C[C@@H]1C	7	10
O=S(=O)(c1cccs1)N1CCCCN2[C@H](C1)[C@@H](c1ccc(Br)cc1)[C@@H]2CO	-1	-2
COc1ccc(CN(C)C[C@H]2Oc3c(NS(=O)(=O)c4ccccc4)cccc3C(=O)N([C@H](C)CO)C[C@@H]2C)cc1	14	9
Cc1noc(C)c1NC(=O)Nc1cccc2c1O[C@H](CN(C)Cc1ccc(Cl)c(Cl)c1)[C@H](C)CN([C@H](C)CO)C2=O	1	-2
CC(=O)N1[C@H](CO)[C@H](c2ccccc2)C12CN(C(=O)Nc1ccccc1F)C2	5	1
CC(=O)N1[C@@H]2Cn3c(cccc3=O)[C@H]1[C@@H](C(=O)N1CCc3ccccc3C1)[C@@H]2CO	1	3
COCC#Cc1cnc2c(c1)C(=O)N([C@H](C)CO)C[C@H](C)[C@@H](CN(C)C(=O)c1ccc(F)cc1)O2	16	13
C[C@@H]1CCCCO[C@@H](CN(C)C(=O)Cc2ccccc2)[C@@H](C)CN([C@H](C)CO)C(=O)c2cc(NC(=O)Cc3ccccc3)ccc2O1	4	4
Cc1noc(C)c1S(=O)(=O)Nc1ccc2c(c1)CC(=O)N([C@@H](C)CO)C[C@@H](C)[C@H](CN(C)C)O2	9	20
CO[C@H]1CN(C)C(=O)c2cc(NS(=O)(=O)c3ccc(F)cc3)ccc2OC[C@@H](C)NC[C@@H]1C	0	5
Cc1cccc(-c2ccc([C@@H]3[C@H](CO)N4CCCCN(Cc5ccncc5)C[C@@H]34)cc2)c1	?	.
COc1ccc(S(=O)(=O)Nc2ccc3c(c2)C(=O)N([C@H](C)CO)C[C@@H](C)[C@@H](CN(C)Cc2ccc(Cl)c(Cl)c2)O3)cc1	?	.
O=C(NC1CCCC1)N1CCCCN2[C@H](C1)[C@H](c1ccc(-c3cccnc3)cc1)[C@@H]2CO	-16	-12
CCCNC(=O)N(C)C[C@H]1Oc2cc(C#CCC(C)C)ccc2S(=O)(=O)N([C@@H](C)CO)C[C@@H]1C	-22	-16
Cc1noc(C)c1NC(=O)Nc1ccc2c(c1)CC(=O)N([C@@H](C)CO)C[C@H](C)[C@H](CN(C)Cc1ccncc1)O2	15	5
COc1cc(COC(C)=O)ccc1OC(C)=O	17	4
CC(=O)N(C)C[C@H]1[C@H](c2ccc(-c3cccnc3)cc2)[C@@H](CO)N1C(=O)C1CC1	16	12
CCC(=O)Nc1ccc2c(c1)C(=O)N(C)C[C@H](OC)[C@H](C)CN(C(=O)NC(C)C)[C@H](C)CO2	10	5
CO[C@H]1CN(C)C(=O)c2cc(C#N)ccc2OCC[C@H]2CC[C@@H](OC)[C@H](CN(C)C(=O)[C@@H]1C)O2	8	4

Record cards, as listed above:
Cc1noc(C)c1NC(=O)Nc1ccc2c(c1)CC(=O)N([C@@H](C)CO)C[C@H](C)[C@H](CN(C)Cc1ccncc1)O2 as listed: Vaccinia stage: 15; Vaccinia stage Venus: 5
CCC(=O)Nc1ccc2c(c1)C(=O)N(C)C[C@H](OC)[C@H](C)CN(C(=O)NC(C)C)[C@H](C)CO2 as listed: Vaccinia stage: 10; Vaccinia stage Venus: 5

The main list resumes, repeating the 3 entries before the break.
Structure	Vaccinia stage	Vaccinia stage Venus
CC(=O)N(C)C[C@H]1[C@H](c2ccc(-c3cccnc3)cc2)[C@@H](CO)N1C(=O)C1CC1	16	12
CCC(=O)Nc1ccc2c(c1)C(=O)N(C)C[C@H](OC)[C@H](C)CN(C(=O)NC(C)C)[C@H](C)CO2	10	5
CO[C@H]1CN(C)C(=O)c2cc(C#N)ccc2OCC[C@H]2CC[C@@H](OC)[C@H](CN(C)C(=O)[C@@H]1C)O2	8	4
O=C(Nc1ccccc1F)N1C[C@H]2[C@@H](c3ccccc31)[C@H](CO)N2C(=O)Nc1ccccc1	4	1
CCC(=O)N(C)C[C@@H]1Oc2cc(C#Cc3cccnc3)ccc2S(=O)(=O)N([C@H](C)CO)C[C@@H]1C	11	6
CCCC#Cc1ccc2c(c1)O[C@@H](CN(C)C(=O)c1cnccn1)[C@H](C)CN([C@@H](C)CO)S2(=O)=O	9	12
C[C@H]1CN([C@@H](C)CO)C(=O)c2cc(NC(=O)CCN3CCOCC3)ccc2O[C@@H]1CN(C)Cc1ccc(Cl)c(Cl)c1	-10	-3
COc1cc(CN2CC3(CCN(S(=O)(=O)c4cccs4)CC3)c3c(n(C)c4cc(OC)ccc34)[C@@H]2CO)cc(OC)c1	15	8
O=S(=O)(N[C@H]1CC[C@H](CCn2cc(C3CC3)nn2)O[C@H]1CO)c1ccc(F)cc1	3	2
O=C(O)[C@@H]1[C@@H](CO)[C@@H]2Cn3c(ccc(-c4ccccc4)c3=O)[C@@H]2N1Cc1ccccc1F	-22	-16
CCN(C[C@@H]1[C@@H](c2ccccc2)[C@H](CO)N1CC1CC1)C(=O)c1cccc(F)c1	13	14
COc1ccc2c3c(n(C)c2c1)[C@H](CO)N(C(=O)Cc1ccccn1)CC31CCN(Cc2ccccn2)CC1	-3	-7
COc1ccc(NC(=O)N[C@H]2CC[C@H](CC(=O)NC3CCC3)O[C@@H]2CO)cc1	11	7
CCCNC(=O)[C@@H]1c2ccccc2C(=O)N(Cc2ccccc2OC)[C@H]1c1ccc(CO)cc1	13	5
CC(C)NC(=O)N(C)C[C@@H]1OCCCC[C@@H](C)Oc2ccc(NC(=O)Nc3ccc4c(c3)OCO4)cc2C(=O)N([C@@H](C)CO)C[C@H]1C	17	1
COc1cccc(-c2ccc(C3[C@H]4CNC[C@@H]3N4S(=O)(=O)Cc3ccccc3)cc2)c1 (stereo partly drawn)	7	12
C[C@H]1CN([C@@H](C)CO)C(=O)CCCn2cc(nn2)CO[C@@H]1CN(C)Cc1ccccc1C(F)(F)F	-1	4
COc1ccc(S(=O)(=O)Nc2ccc3c(c2)C(=O)N([C@@H](C)CO)C[C@@H](C)[C@@H](CN(C)S(=O)(=O)c2ccc(F)cc2)O3)cc1	12	11
CN1CCN(C(=O)C[C@H]2CC[C@H]3[C@@H](COc4ccc(NC(=O)C5CCCCC5)cc4C(=O)N3C)O2)CC1	1	2
CCCC#Cc1ccc([C@@H]2[C@H](CO)N3C(=O)CN(C(=O)Nc4cc(F)ccc4F)C[C@@H]23)cc1	-13	-9
O=C(NCC[C@@H]1CC[C@H](NC(=O)C2CC2)[C@H](CO)O1)c1cc(Cl)cc(Cl)c1	7	0
C[C@H](CO)N1C[C@H](C)[C@H](CN(C)C(=O)CCCN(C)C)OCc2cn(nn2)CCCC1=O	36	16
COc1ccc(S(=O)(=O)N[C@@H]2CC[C@H](CCNC(=O)CN3CCOCC3)O[C@H]2CO)cc1	7	15
COc1cccc(NC(=O)N(C)C[C@@H]2Oc3ncc(/C=C/c4ccccc4)cc3C(=O)N([C@H](C)CO)C[C@H]2C)c1	?	.
C[C@@H]1CN([C@@H](C)CO)C(=O)c2cc(NC(=O)c3ccncc3)ccc2O[C@@H](C)CCCCO[C@H]1CN(C)C(=O)NC1CCCCC1	20	16
CN(C)CCCNC(=O)C[C@@H]1CC[C@@H]2[C@H](COC[C@@H](O)CN2CC2CCCCC2)O1	5	12
CCCC(=O)Nc1ccc2c(c1)OC[C@@H](C)N(CCC)C[C@H](C)[C@H](OC)CN(C)C2=O	3	3
Cc1noc(C)c1NC(=O)N(C)C[C@@H]1Oc2ccc(NC(=O)Nc3cccc4ccccc34)cc2CC(=O)N([C@H](C)CO)C[C@H]1C	9	12
O=C(N[C@H]1C=C[C@@H](CC(=O)N2CCN(c3ccccc3)CC2)O[C@H]1CO)c1ccncc1	-1	-4
CCC(=O)N1CC(=O)N2[C@@H](CO)[C@@H](c3ccc(C#CCc4ccccc4)cc3)[C@@H]2C1	17	6
COc1ccccc1S(=O)(=O)N[C@@H]1C=C[C@@H](CC(=O)N2CCCCC2)O[C@H]1CO	8	1
O=C(C[C@H]1CC[C@H](NC(=O)c2ccc3c(c2)OCO3)[C@@H](CO)O1)NCc1ccc(F)cc1	1	-1
C[C@H](CO)N1C[C@H](C)[C@@H](CN(C)Cc2ccc(F)cc2)Oc2ncc(C#Cc3cccnc3)cc2C1=O	-23	-15

Continuation.
SMILES | Vaccinia stage | Vaccinia stage Venus
C[C@@H]1CCCCO[C@H](CN(C)S(=O)(=O)c2ccccc2)[C@H](C)CN([C@@H](C)CO)C(=O)c2cc(NS(=O)(=O)c3ccc(Cl)cc3)ccc2O1 | ? | .
COC(=O)N(C)C[C@H]1OCc2ccccc2-c2ccccc2C(=O)N([C@H](C)CO)C[C@H]1C | 12 | 4
Cc1ccccc1-c1cnc2c(c1)C(=O)N([C@H](C)CO)C[C@H](C)[C@@H](CN(C)C(=O)CC1CC1)O2 | 4 | 6
CS(=O)(=O)N1[C@H](CO)[C@H](c2ccccc2)C12CN(C(=O)c1ccccc1F)C2 | 3 | 4
CO[C@H]1CN(C)C(=O)c2cc(NC(=O)c3cnccn3)ccc2OC[C@H](C)N(CCc2ccccc2)C[C@H]1C | 5 | 7
C[C@H](CO)N1C[C@H](C)[C@@H](CN(C)CC2CCCCC2)Oc2ccc(NC(=O)CCC(F)(F)F)cc2CC1=O | -26 | -22
COCCNC(=O)C[C@H]1CC[C@@H]2[C@H](COC[C@@H](O)CN2S(=O)(=O)c2ccccc2C)O1 | 9 | 2
O=C(N[C@H]1CC[C@H](CCNS(=O)(=O)Cc2ccccc2)O[C@@H]1CO)c1ccccc1F | 9 | 12
COc1ccc(NC(=O)Nc2ccc3c(c2)C(=O)N([C@@H](C)CO)C[C@H](C)[C@H](CN(C)S(C)(=O)=O)O3)cc1 | 5 | 10
CC(C)NC(=O)Nc1cccc2c1O[C@H](CN(C)S(=O)(=O)c1ccc(F)cc1)[C@@H](C)CN([C@H](C)CO)C2=O | -5 | 0
Cc1ccc(S(=O)(=O)N[C@@H]2CC[C@H](CCNC(=O)C3CCC3)O[C@@H]2CO)cc1 | 3 | 6
CC(C)(C)[S@@](=O)N1Cc2cc(C(=O)NCc3ccc4c(c3)OCO4)nc(-c3cccc(-c4ccccc4)c3)c2[C@H]1CCO | -32 | -9
COc1ccc(S(=O)(=O)Nc2ccc3c(c2)C(=O)N([C@H](C)CO)C[C@@H](C)[C@@H](CN(C)S(=O)(=O)c2ccc(Cl)cc2)OCCCC[C@H](C)O3)cc1 | 1 | -9
Cc1ccccc1S(=O)(=O)N1[C@H](CO)[C@@H](c2ccccc2)[C@@H]1C#N | 6 | 2
C[C@@H]1CN([C@H](C)CO)S(=O)(=O)c2ccc(-c3ccccc3)cc2O[C@@H]1CN(C)C(=O)Nc1ccccc1F | -5 | -11
C[C@H](NC(=O)C[C@H]1CC[C@H]2[C@@H](COC[C@H](O)CN2Cc2cc(F)ccc2F)O1)c1ccccc1 | -3 | 0
C[C@@H]1CN([C@H](C)CO)S(=O)(=O)c2ccc(-c3cccnc3)cc2O[C@H]1CN(C)CC1CCOCC1 | 6 | 8
C[C@@H]1CN([C@@H](C)CO)C(=O)c2cccc(NC(=O)C3CCOCC3)c2O[C@@H]1CN(C)C(=O)NC1CCCCC1 | 1 | 0

A portion of the library; rates above refer to the full screens.
